# Compound activity deposited in PubChem by ICCB-Longwood Screening Facility, Harvard Medical School.
# AID504770 – E. coli YBA685 growth inhibition, screen for V. cholerae RctB inhibitors. E. coli YBA685 rctB-dependent plasmid, OD600 growth, 3 h; hits give low values. z-score (no concentration beside the values). 130,000 tested, 0.27% active. AID 504770;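 active means z-score under -2 on both plates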;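 further: wells of about 30 µL received 100 nL stock; score is relative to mean and SD of the test wells; the first replicate is given; strong numbers were not always called active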
# Ba CapD inh – inhibitors of Bacillus anthracis CapD enzyme | purified CapD enzyme, fluorescence intensity read-out; hits give low values; some hits fall short of the stated cut | z-score (test concentration not listed) | 140,000 tested, 0.23% active | AID 492967;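 active means z-score under -4 in either of two replicates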;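 further: stock transfer was 100 nL into about 40 µL; score is relative to mean and spread of the plate; one replicate is shown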
# An asterisk follows results filed as active; x = no result given.
# The first 15 entries, to show the layout:
SMILES,AID504770,Ba CapD inh
CCc1cccc(C)c1NC(=O)COC(=O)C1CC(=O)N(c2ccc(OC(C)C)cc2)C1 (stereo not given),-0.1,0.68
O=C(CSc1nc2cc(C(=O)NCC3CCCO3)ccc2c(=O)n1Cc1ccco1)NC1CCCCC1 (stereo not given),x,0.51
O=C(NCc1c(Cl)cccc1Oc1ccccc1)c1ccc2nccnc2c1,-0.45,0.81
Cc1c(C#N)sc(C(N)=O)c1C,x,-0.41
COc1ccc2ncc(C(=O)O)c(NCCO)c2c1,0.1,x
O=C(c1ccccc1)C1CCNCC1,x,-0.21
O=C(CSC1=NCCS1)NCc1ccc2c(c1)OCO2,-0.95,x
O=C(CN1CCSC1=O)Nc1cccc(-c2nnc3n2CCCCC3)c1,-0.95,x
S=C(NNc1ccccc1)c1ccccc1,-2.1,-2.9
COc1ccc(S(=O)(=O)NC2CCCCC2)cc1,1.6,2
Cc1nc(C(F)(F)F)nc(Sc2n[nH]c(-c3ccccc3)n2)c1C,-0.45,0.025
NS(=O)(=O)c1ccc(-c2ccc(/C=N/NC(=O)CSc3ccccc3F)o2)cc1,-0.4,x
O=C(CSc1ncnc2sc3c(c12)CCC3)Nc1ccc2c(c1)OCCO2,x,-0.3
CCOC(=O)NNc1nc2ccccc2o1,-0.8,x
CC(=O)C1=NN(c2ccccc2)C(c2ccccc2OCc2ccc(Cl)cc2)N1c1ccc(Cl)cc1 (stereo not given),x,-0.065

# The whole of this part, repeating the preview:
SMILES,AID504770,Ba CapD inh
CCc1cccc(C)c1NC(=O)COC(=O)C1CC(=O)N(c2ccc(OC(C)C)cc2)C1 (stereo not given),-0.1,0.68
O=C(CSc1nc2cc(C(=O)NCC3CCCO3)ccc2c(=O)n1Cc1ccco1)NC1CCCCC1 (stereo not given),x,0.51
O=C(NCc1c(Cl)cccc1Oc1ccccc1)c1ccc2nccnc2c1,-0.45,0.81
Cc1c(C#N)sc(C(N)=O)c1C,x,-0.41
COc1ccc2ncc(C(=O)O)c(NCCO)c2c1,0.1,x
O=C(c1ccccc1)C1CCNCC1,x,-0.21
O=C(CSC1=NCCS1)NCc1ccc2c(c1)OCO2,-0.95,x
O=C(CN1CCSC1=O)Nc1cccc(-c2nnc3n2CCCCC3)c1,-0.95,x
S=C(NNc1ccccc1)c1ccccc1,-2.1,-2.9
COc1ccc(S(=O)(=O)NC2CCCCC2)cc1,1.6,2
Cc1nc(C(F)(F)F)nc(Sc2n[nH]c(-c3ccccc3)n2)c1C,-0.45,0.025
NS(=O)(=O)c1ccc(-c2ccc(/C=N/NC(=O)CSc3ccccc3F)o2)cc1,-0.4,x
O=C(CSc1ncnc2sc3c(c12)CCC3)Nc1ccc2c(c1)OCCO2,x,-0.3
CCOC(=O)NNc1nc2ccccc2o1,-0.8,x
CC(=O)C1=NN(c2ccccc2)C(c2ccccc2OCc2ccc(Cl)cc2)N1c1ccc(Cl)cc1 (stereo not given),x,-0.065
COC(=O)c1c(C(=O)OC)c(-c2ccc(Cl)cc2)n2c1CS(=O)(=O)C2,x,-0.005
COc1cccc(CNC(=O)c2cc3c(=O)[nH]c4ccccc4c3s2)c1,1.5,-0.035
CC1=CN2C(=NC(C(F)(F)F)(C(F)(F)F)N=C2c2ccco2)C=C1,-0.45,-0.96
O=C(CSc1nc2ccccc2s1)NCc1n[nH]c(=O)c2ccccc12,x,-0.005
COc1cccc(-c2nnc3sc(NC(C)=O)nn23)c1,0.05,0.14
Cc1onc(-c2c(Cl)cccc2Cl)c1NC(=O)NCC(c1ccc[nH]1)C(F)(F)F (stereo not given),0,0.77
COc1ccc(N2C(=O)/C(=C\c3ccc(C(C)C)cc3)C(=O)NC2=S)cc1,-0.6,-0.23
O=[N+]([O-])/C(=C\Nc1ccc(Br)cc1)S(=O)(=O)c1ccccc1,x,-0.34
COc1ccc(/C=C(\C#N)c2nc3ccccc3[nH]2)cc1OC,x,-1.8
O=C(NC(Cc1c[nH]c2ccccc12)C(=O)OCc1ccccc1)OCCc1cccc(F)c1 (stereo not given),x,-0.89
CCOC(=O)C1CCCN(C(=O)c2cc3ccccc3oc2=O)C1 (stereo not given),-1.4,1.9
O=C(NC1CCCCC1)Oc1ccccc1-c1nnc2n1CCCCC2,0,0.67
COc1ccc(Oc2ccc3c(c2)c2c4n3CCNC4CCC2)cc1 (stereo not given),x,0.14
Cc1cc(=O)[nH]c(NN=C2CCC(C(C)(C)C)CC2)n1 (stereo not given),-1.6,x
COc1cc(/C=c2\sc3nc4ccccc4n3c2=O)cc(Cl)c1OCCOc1ccc(C)cc1,x,1.2
Cc1ccc(C(C)C)c(OCCNC(=O)Nc2ccc(Br)cc2)c1,-0.6,2.4
CCC(C)NC(=O)c1ccc(N2CC3CC(C2)c2cccc(=O)n2C3)c(NS(=O)(=O)CC23CCC(CC2=O)C3(C)C)c1 (stereo not given),x,0.51
Cc1c(NC(=O)/C=C/c2ccc(Cl)cc2)c(=O)n(-c2ccccc2)n1C,x,-0.09
Cc1cc(C)c(C(=O)O)c(CC(C)(C)C(=O)N2CC=C(c3ccccc3)CC2)c1,x,-0.12
CN1CCCN(C(=O)c2cccs2)CC1,-0.45,0.22
CCOC(=O)C1=C(N)c2ccccc2CC1(C)CC (stereo not given),-0.55,0.2
COc1ccccc1C(=O)NCC(=O)N/N=C/c1ccc([N+](=O)[O-])s1,x,1.2
O=C(Cc1ccccc1)N/N=C1/CCS(=O)(=O)c2ccc(F)cc21,1.5,x
Cc1nnc2sc(-c3ccc(F)cc3)nn12,-0.05,-0.34
COC(=O)c1ccc2c(=O)[nH]c(COC(=O)c3ccccc3SCC(=O)N3CCCC3)nc2c1,-0.35,x
O=C(Oc1ccccc1OC(=O)N1CCCCC1)N1CCCCC1,0,x
Cc1ccc(S(=O)(=O)C[C@H]2O[C@@H](n3cc(I)c(=O)[nH]c3=O)C[C@@H]2O)cc1,0.65,0.38
COc1ccc(/C=c2\sc3nnc(-c4ccc(C)cc4)n3c2=O)cc1OC,x,-0.76
Cc1nn(-c2ccc(F)cc2)c(C)c1/C=C/C(=O)NC(C)(C)C,-0.5,x
O=C(CCN1C(=O)c2ccccc2S1(=O)=O)N1CCN(c2ccccc2)CC1,2.5,x
O=C(C1=Cc2sc3c(c2CS1)CCCC3)N1CCCC1,-1.6,-0.99
Cn1cccc1-c1nnc(SCc2ccc(Br)cc2)o1,x,0.66
COc1ccc(-c2csc(C)n2)cc1,-1.1,x
Cc1cc2[nH]c(=O)cc(C)n2n1,-0.75,7.3
Cc1nc2nc(N)nn2c(C)c1CCC(=O)OCc1cccc(Cl)c1,-0.6,x
N#Cc1ccc2c(c1)N(Cc1c(F)cccc1Cl)C(=O)C1CCCN21 (stereo not given),-0.85,4.5
CCOC(=O)N1CCC(NC(=O)c2ccc3c(c2)sc2nc(-c4ccc(OC)cc4)cn23)CC1,-0.4,0.74
O=C1C2(Cc3ccccc3)CN3CN(C2)CC1(Cc1ccccc1)C3,0.3,x
O=C(c1ncoc1-c1ccccc1)N(Cc1ccccn1)Cc1ccccn1,1.6,-0.29
CCCn1c2c(c(O)c(C(=O)Nc3ccccc3F)c1=O)CCCC2,-0.45,x
CCc1ccc(/C=C2\CCc3ccccc3C2=O)cc1,0.1,0.34
O=C(Nc1ccsc1C(=O)O)c1ccccc1,-0.6,0.4
CCN(Cc1ccccc1)C(=O)c1c[nH]c2ccc(S(=O)(=O)N(CC)c3cccc(C)c3)cc2c1=O,x,1.9
CC(C)(C)C(=O)NC1CCSC1=O (stereo not given),0.4,80
CCOCCC(=O)Nc1cc(C)ccn1,-0.85,x

# The list goes on.
SMILES,AID504770,Ba CapD inh
CCc1ccc2c(c1)CCCN2C(=O)c1ccccc1C(=O)O,-0.85,x
COc1cc(OC)cc(C(=O)NCc2nnc(SCC(=O)N3N=C(c4cccs4)CC3c3ccc(F)cc3)n2C)c1 (stereo not given),x,16
CC1=C/C(=N\NC(=O)c2cc(C)oc2C)CC1,-0.65,x
CC(C)(C)c1cc(CN(CCN(Cc2cc(C(C)(C)C)c(O)c(C(C)(C)C)c2)Cc2cc(C(C)(C)C)c(O)c(C(C)(C)C)c2)Cc2cc(C(C)(C)C)c(O)c(C(C)(C)C)c2)cc(C(C)(C)C)c1O,x,-0.095
CN(C)N1C(=O)CC(n2cnc3ccccc32)C1=O (stereo not given),-0.95,x
CCOc1ccccc1/C=N/NC(=O)N/N=C/c1ccccc1OCC,x,-0.97
CCN(CC)C(=O)c1ccc(NC(=O)Nc2ccccc2F)cc1,-0.25,x
O=C(Cc1ccc2c(c1)OCCO2)Nc1cccc(C(F)(F)F)c1,-0.6,x
CCN(CC)Cc1nc2c(c(=O)[nH]1)C(CC)(CC)Cc1ccccc1-2,-0.75,x
CCC(CC(=O)NCc1ccc(Cl)cc1Cl)n1ccnc1 (stereo not given),-0.25,x
CCOC(=O)c1cn(Cc2ccccc2)c2cc(C)nn2c1=O,-0.65,35
Oc1ccc(O)c(C2CC3CCC2C3)c1 (stereo not given),-0.4,0.4
CC1CC(=O)Nc2ccccc2N1S(=O)(=O)c1ccc(C(F)(F)F)cc1 (stereo not given),0.9,1.2
CC(C)OC(=O)CC(=O)CSc1nc2c(c(-c3cccs3)c1C#N)CCCC2,x,0.65
OC(CSc1ccc(F)cc1)CN1CCN(c2ccccc2F)CC1 (stereo not given),x,-0.48
O=C(CCNc1ccc(Cl)cc1)c1cccs1,-0.4,0.26
O=C(Nc1cccc(C(F)(F)F)c1)c1cccn(Cc2ccccc2)c1=O,x,1.1
[O-]/[N+](=C\c1ccc(OC(F)F)cc1)c1ccccc1,-0.35,-0.6
Cc1ccc(S(=O)(=O)N/N=C/c2c(O)ccc3oc4c(c23)CCCC4)cc1,0.2,x
CCOc1cc(N2CCOCC2)c(OCC)cc1NC(=O)COC(=O)CN=C1NS(=O)(=O)c2ccccc21,-0.2,x
COCCNc1oc(-c2cccc(C)c2)nc1C#N,-0.75,79
CCc1ccccc1NC(=O)C1CCCN(c2nnc(-n3cccc3)s2)C1 (stereo not given),-1,0.4
Cc1ccc(NC(=O)C2(NC(=O)c3ccc(-n4cnnn4)cc3)CCCCC2)cc1,-1.1,0.3
CCNC(=O)c1cccc(NC(=O)Cc2n[nH]c(=O)c3ccccc23)c1,-0.55,x
O=C(c1cccc(F)c1)N1CCN(c2ccc([N+](=O)[O-])c(N3CCCCC3)c2)CC1,x,-0.54
CCCC[n+]1cc(-c2ccccc2)nc(N2CCCCC2)n1,-0.65,-1.2
COc1cc(CNC(=O)N2CCN(CC(=O)N3CCCC3)CC2)cc(OC)c1,x,0.58
COc1ccc(N2CCN(C(=O)CCNS(=O)(=O)c3ccc(Br)s3)CC2)cc1,1.8,-0.28
COc1ccc2[nH]c3ccccc3c2c1,-0.5,66
CN1CCN(Cc2cccc(Cl)n2)CC1,x,-0.44
COc1cc2c(cc1OC)CN(CCC(=O)O)CC2,-0.8,28
O=C(OC1CCCCC1=O)c1ccc(O)cc1 (stereo not given),2.5,-0.29
CC(C)(C)c1cn(-c2ccc(F)cc2)c(=S)[nH]1,0.5,8
O=C(c1cc2cc3ccccc3nc2s1)c1ccc(Cl)cc1Cl,x,-0.12
O=C(CSc1nccc(=O)[nH]1)CSc1nccc(=O)[nH]1,-0.4,x
O=C(O)CCC(=O)N1N=C(c2ccc(Br)cc2)CC1c1ccccc1Cl (stereo not given),x,1.9
CCOC(=O)c1cc(C#N)c(C)nc1N1CCN(C(=O)OCCN2CCN(Cc3cc4ccccc4o3)CC2)CC1,x,0
COc1cccc(C2Nc3ccccc3-c3nc4ccccc4n32)c1 (stereo not given),-0.45,67
CNc1c(NC(=O)Nc2cccc(OC)c2)c(=O)oc2ccccc12,1.6,6.8
COc1ccc(C(=O)Nc2cc(-c3nc4ccccc4s3)ccc2C)cc1OC,x,-0.19
CC(C)(C)C(=O)Nc1ccc(N2CCN(C(=O)c3ccco3)CC2)c(Cl)c1,-0.1,x
CCC(=O)N1c2ccc(S(=O)(=O)CCC(=O)Nc3ccc(C)c(F)c3)cc2CC1C (stereo not given),-0.5,-0.15
CCN1C(=O)C(=Cc2ccc(-c3ccc(Br)c(Cl)c3)o2)C(=O)N(CC)C1=S,1,0.055
NC(=O)N/N=C/c1cn(-c2ccccc2)nc1-c1ccccc1,0.2,0.15
COc1ccccc1CNC(=O)C1CCCN(S(=O)(=O)c2ccc(C)cc2)C1 (stereo not given),0.1,33
Cc1cccc2c(C(F)(F)F)cc(Oc3cccc(C(F)(F)F)c3)nc12,x,-0.62
Cc1oc(C(=O)NN)nc1-c1ccccc1,x,0.32
COc1ccc2oc(=Nc3cccc(C#N)c3)c(C(=O)Nc3ccccc3)cc2c1,x,0.62
N#Cc1c(/N=C/c2ccc(Cl)c(Cl)c2)oc(-c2ccccc2)c1-c1ccccc1,x,1.2
O=C(CSC(=S)N1CCSCC1)c1ccccc1,-0.65,0.4
COc1cc(/C=C/C2=NNC(=O)CC2)cc(OC)c1OC,-0.3,5.5
Clc1ccc(-c2nnnn2-c2cnccn2)cc1,x,0.85
O=C(CSc1nc(-c2ccco2)cc(C(F)(F)F)n1)N(Cc1ccccc1)Cc1ccccc1,-0.7,-0.29
FC(F)(F)c1c2c(nc3cc(-c4ccco4)nn13)CCC2,0.25,0.82
CNS(=O)(=O)c1cccc(C(=O)NCc2ccccc2)c1,0,x
Cc1[nH]c2ccc(CNS(=O)(=O)c3ccc(S(=O)(=O)N4CCOCC4)cc3)cc2c1C,1.5,x
CCOC(=O)N/N=C(\C)c1cccc([N+](=O)[O-])c1,x,-0.49
O=C1c2ccncc2C(=O)N1c1ccc(Cl)cc1,x,0.025
Clc1cncc(Cl)c1N/N=C/c1ccccn1,x,2.6
COC(=O)c1ccc(-c2ccco2)n1CC(=O)N1CCc2ccccc21,-0.65,4.2
CN1C(=O)C2(c3ccccc31)C(C(=O)N1CCC3(CC1)OCCO3)CC1CCCN12 (stereo not given),1,0.42
CCCCC(=O)Oc1cc(-c2ccccc2)c2oc(=O)sc2c1,0.1,0.21
